Assay outcomes from PubChem BioAssay.
VDR inhibitor = Inhibitors of the vitamin D receptor (VDR): qHTS; AID 504847, 2011; Potency, µM, inactives show max response, negative = inhibition, most hits filed as inhibitors; Vitamin D3 receptor (Homo sapiens), P11473; 400,000 tested, 0.93% active; VDR-SRC2-3 peptide fluorescence polarization, 2 h; active means well fitted inhibition curve with a large enough effect; inconclusive means small, poorly fitted or top-dose-only effect, or another doubt; inactive means no such curve, though single readings can be large or run the other way; further: series mostly up to about 120 µM
Target sequence (P11473 whole entry, looked up): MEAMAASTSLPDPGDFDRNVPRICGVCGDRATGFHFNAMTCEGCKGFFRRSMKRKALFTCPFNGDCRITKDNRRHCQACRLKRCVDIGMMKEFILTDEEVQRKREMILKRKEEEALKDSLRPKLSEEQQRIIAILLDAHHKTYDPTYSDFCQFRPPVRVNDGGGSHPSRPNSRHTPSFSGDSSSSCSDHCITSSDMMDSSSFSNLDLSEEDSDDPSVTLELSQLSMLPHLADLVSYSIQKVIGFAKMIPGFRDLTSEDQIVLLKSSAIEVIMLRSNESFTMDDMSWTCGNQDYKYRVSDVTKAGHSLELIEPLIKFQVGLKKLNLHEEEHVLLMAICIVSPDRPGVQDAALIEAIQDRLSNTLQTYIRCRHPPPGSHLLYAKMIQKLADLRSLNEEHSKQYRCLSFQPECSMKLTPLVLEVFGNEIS
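Two reagent solutions held at 4 deg C in the dark were dispensed, compounds pinned at 23 nl, and the mixture incubated 2 h at room temperature. Read-out: fluorescence polarization of VDR–SRC2-3 peptide binding.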
Starred values were filed as active, the others as inactive; ? = inconclusive; & = joins results of further samples. On the % scale 0 is the no-effect control and ±100 the full control effect; potency means the concentration at half of the fitted maximal effect. Not all compounds are listed. The share of hits here may be higher or lower than overall.

compound,VDR inhibitor
Cc1cccc(NC(=O)CSc2nc3c(c(=O)[nH]2)CCCC3)c1C,1%
O=C1CC(c2ccccc2)Cc2[nH]c(=O)c(-c3nc(-c4cccc(Cl)c4)cs3)cc21 (configuration not stated),-25%
O=c1oc2ccccc2cc1-c1csc(NN=C2CCCCC2)n1,1%
Nc1cc(Cl)ccc1N1CCCCC1,10%
COc1ccc(C2CC(=O)c3cnn(-c4nc(C)cc(C)n4)c3C2)cc1OC (configuration not stated),-7%
S=C(NCCCN1CCOCC1)Nc1ccc(Cl)c(Cl)c1,-2%
CC[C@@]1(C(=O)OC)N[C@H](CN(C)C(=O)Nc2ccccc2)[C@@H]2C(=O)N(Cc3ccccc3)C(=O)[C@@H]21,-18%
CCN(CC)C(=O)c1cnn(-c2ccc(F)cc2)c1-n1cccc1,12%
COc1ccccc1OCCNC(=O)C1CCN(C(C)=O)CC1,-6%
O=C(Nc1cccc(C(=O)NC2CCCCC2)c1)c1ccccc1,-4%
CCC(=O)c1ccc(OCC(O)CNCc2ccc(F)cc2)cc1 (configuration not stated),-15%
S=C(NCC1CCCCC1)Nc1cccnc1,-10%
O=C1CSC(c2ccccn2)N1c1ccccc1 (configuration not stated),-1%
COCCNC(=S)N1CCN(c2nc(-c3ccc(Cl)cc3)cs2)CC1,-13%
CCCN(CCC)S(=O)(=O)c1ccc(NC(=O)c2cc(C(=O)OC)cc([N+](=O)[O-])c2)cc1,-17%
Cc1ccc(C(=O)Nc2nc(-c3ccccc3)c(-c3ccccc3)o2)cc1,-2%
Cc1ccc(NC(=O)Cc2coc3c(C)c(C)ccc23)cc1Cl,4%
O=C(CN1CCN(Cc2ccccc2Cl)CC1)N/N=C/c1cccs1,20%
O=C(NCc1ccc2c(c1)OCO2)c1cc(-c2ccccc2)nn1CC1CC(c2cccnc2)=NO1 (configuration not stated),-11%
O=C(C1=C(O)C(=O)N(CCc2ccccc2)C1c1cccnc1)c1ccco1 (configuration not stated),-10%
CCCCN(CC)CCCNC(=O)C1CCN(c2ncnc3c2sc2cccc(F)c23)CC1,-4%
CCOC(=O)N1CCN(C2=C(NS(=O)(=O)c3ccccc3)C(=O)c3ccccc3C2=O)CC1,?
C=C(C)Cn1c(NCCC)nc2c1c(=O)n(C)c(=O)n2C,?
Cc1cc(C)c(-c2cc(NC(=O)COC(=O)c3ccc(C#N)cc3)n(-c3ccccc3)n2)cc1C,24%
CC(C)(C)C(=O)Cn1ncc(N2CCOCC2)c(Cl)c1=O,-11%
CCOc1ncccc1C(=O)OCC(=O)Nc1ccc(Cl)cn1,-1%
Cc1cc(C)c(S(=O)(=O)N2CCN(C(=O)c3c(C)nn(-c4ccccc4)c3Cl)CC2)c(C)c1,-13%
COc1ccc(C(CC(=O)O)NC(=O)Cc2ccccc2)cc1 (configuration not stated),-11%
Cc1cccc(NC(=O)CN2C(=O)S/C(=C\C(=O)Nc3ccc(Cl)cc3)C2=O)c1,6%
O=C(N/C(=C\c1cccnc1)C(=O)N1CCOCC1)c1ccco1,7%
C=CCC1(CC=C)CCCN1C(=O)c1cc(COc2cccc(C(F)(F)F)c2)on1,-12%
COc1ccccc1NS(=O)(=O)c1cc(C(=O)NC2CCN(Cc3ccccc3)CC2)ccc1C,-21%
CCN=C1S/C(=C\c2cc(Br)ccc2OCC(=O)OCC)C(=O)N1CC,-10%
COC(=O)c1c(NC(=O)CCCOc2ccc(C(C)(C)C)cc2)sc2c1C(C(=O)OC)CC2 (configuration not stated),?
O=S(=O)(c1ccc(F)cc1)n1ccc(-c2cccc(OCc3ccc(Cl)cc3Cl)c2)n1,-4%
COc1ccc(Cc2nnc(NC(=O)Nc3ccccc3OC)s2)cc1,1%
CNc1c(NS(=O)(=O)c2ccc(OC)cc2)c(=O)oc2ccccc12,1%
OC(COCc1ccccc1)CN1CCc2ccccc2C1 (configuration not stated),-21%
Cc1cccc(N(C(=O)CCC(=O)Nc2nccs2)C(C(=O)NC(C)(C)C)c2ccc(O)cc2)c1 (configuration not stated),-6%
COc1ccc(OC)c(N(CC(=O)NC2CC3CCC2C3)S(=O)(=O)c2ccccc2)c1 (configuration not stated),-10%
O=S(=O)(c1cccs1)N1CCc2ccccc2C1,-1%
O=C(CN1C(=O)CSc2ccc(C(F)(F)F)cc21)Nc1ccccc1,-5%
CC1Cn2c(nc3sc4c(c3c2=O)CCC4)N1CCO (configuration not stated),-2%
O=C(NCc1cccnc1)c1ccccc1NC(=O)c1c(F)cccc1F,-4%
CN(C(=O)c1ccccc1OCc1ccc(Cl)cc1)c1ccccc1,13%
COC(=O)CSc1[nH]c2ccc(F)cc2c1[N+](=O)[O-],?
COc1ccc(C(=O)NC(C)CCc2ccccc2)cc1[N+](=O)[O-] (configuration not stated),-9%
CC(C)C(=O)N1CCN(c2ccccc2NC(=O)c2cccc(Cl)c2)CC1,-9%
Cc1ccc(S(=O)(=O)c2ccc(Cl)cc2)cc1S(=O)(=O)N1CCN(C)CC1,-4%
CCC(C)(C)n1nnnc1C(C(C)C)N1CCN(C)CC1 (configuration not stated),20%
FC(F)(F)c1ccnc(Oc2ccc(C3=NCCS3)cc2)c1,-1%
COc1ccccc1NC(=O)CSC1CC(=O)N(c2ccc3c(c2)OCO3)C1=O (configuration not stated),7%
COc1ccc2c(c1)CCCC21NC(=O)N(CC(=O)N2CC(C)OC(C)C2)C1=O (configuration not stated),-5%
CCC(CC)C(=O)NCCc1ccc(F)cc1,11%
CCOC(=O)C1CCN(S(=O)(=O)c2ccc3c(c2)CC(=O)N3)CC1,-10%
COc1ccc(NC(=O)c2cc3ccccc3o2)c(OC)c1,22%
CC(=O)Nc1ccc2c(c1)-c1ccc(F)cc1C2,-10%
CC1CCN(S(=O)(=O)c2cn(CC(=O)Nc3ccc(C#N)cc3)cn2)CC1,0%
Cc1ccc(C(=O)OCC(=O)c2ccc(CC(=O)N3CCOCC3)s2)c(C)c1,-8%
O=C(Cc1ccc([N+](=O)[O-])cc1)Nc1cccc(C(F)(F)F)c1,6%

Of the compounds above, three have a tert-butyl group.
compound,VDR inhibitor
CC(C)(C)C(=O)Cn1ncc(N2CCOCC2)c(Cl)c1=O,-11%
COC(=O)c1c(NC(=O)CCCOc2ccc(C(C)(C)C)cc2)sc2c1C(C(=O)OC)CC2 (configuration not stated),?
Cc1cccc(N(C(=O)CCC(=O)Nc2nccs2)C(C(=O)NC(C)(C)C)c2ccc(O)cc2)c1 (configuration not stated),-6%

Later entries.
compound,VDR inhibitor
CC(=O)Nc1ccc(S(=O)(=O)N2CCC(C(=O)NCc3cccnc3)CC2)cc1,-9%
CCNc1ncc2nc(-c3cccs3)c(=O)n(-c3ccccc3)c2n1,?
CN1C(=O)N(CC(=O)NCc2ccc(Cl)cc2Cl)C(=O)C12CCCCC2,-10%
CSc1nn(Cc2ccc(C)cc2)c(N)c1S(=O)(=O)c1ccccc1,-3%
CN(C)CCn1c2c(c(SCC(=O)Nc3nccs3)nc1=O)CCCC2,0%
Cc1ccc(COc2ccc(/C=N/O)cc2)cc1,9%
C=CCNC(=S)NNc1nc(N2CCCC2)nc(N2CCCC2)n1,?
O=C(CCn1ccnc1)Nc1ccc2ccccc2c1,-2%
O=C(NCCCCO)c1ccc2c3c(cccc13)CC2,9%
CC(=O)Nc1sc(N/N=C\c2ccco2)nc1-c1cccs1,?
O=[N+]([O-])c1ccc(/C=N/NS(=O)(=O)c2ccc(Cl)cc2)o1,-13%
Cc1ccc(NC(=O)CCC(=O)OCC(=O)c2ccc(Oc3ccc([N+](=O)[O-])cc3)cc2)cc1,5%
CCCC(=O)Nc1c(C(=O)N2CCN(c3ccccc3)CC2)oc2ccccc12,15%
CCOc1ccc(Oc2ccc(C(F)(F)F)cc2NC(=O)C2=COCCO2)cc1,-12%
Cc1ccc(C)c(NC(=O)CC2Sc3ccccc3NC2=O)c1 (configuration not stated),-9%
Cc1ccccc1NC(=O)Cc1nc(COC(=O)CSc2ccccc2)cs1,5%
CC(C)(C)C1CCc2onc(C(=O)NCc3ccc(F)cc3)c2C1 (configuration not stated),5%
Cc1ccc(S(=O)(=O)c2c(C)cc(C)nc2Oc2cccc(C)c2C)cc1,8%
Cc1ccccc1N=C(N)Nc1ccccc1C,2%&0%&-1%
CCOc1ccccc1NC(=O)N1CCCC(c2nc(-c3ccc(C)o3)no2)C1 (configuration not stated),5%
Cc1ccc(C)c(S(=O)(=O)N2CCCOC2CNC(=O)C(=O)NCc2ccccc2)c1 (configuration not stated),-12%
COc1ccc(CN(C)CC(=O)Nc2cccc3ccccc23)cc1F,3%
COc1ccc(-c2cc(C3C4C=CCC(C)C4C(=O)N3Cc3ccccc3)ccc2F)cc1 (configuration not stated),-15%
O=C(Cc1cccs1)NCCN1CCOCC1,4%
Brc1ccc(-c2nnc(-c3ccco3)o2)cc1,5%
O=C(Nc1ccc2c(c1)OCO2)NC1CCN(Cc2ccccc2)CC1,-5%
CN(C)C=NC(=O)c1cc(C(=O)c2ccccc2)c[nH]1,-20%
CCCSc1nnc(NC(=O)Nc2ccc(C)cc2)s1,7%
CSCCC(NC(=O)c1ccccc1Cl)C(=O)Nc1cccc(S(=O)(=O)N2CCCC2)c1 (configuration not stated),-4%
Cc1cc(C(=O)N2CCN(c3ccccc3)CC2)c2c(C)nn(-c3cccc(F)c3)c2n1,0%
O=C(O)c1ncn(Cc2ccc(Br)cc2)c1C(=O)O,-6%
Cn1c(NCCO)nc2c1c(=O)n(Cc1ccccc1Cl)c(=O)n2C,-9%
Fc1ccc(Nc2nc(N3CCOCC3)c3ccccc3n2)cc1,19%
CCN1CCN(c2ccc(S(=O)(=O)N3CCCCC3)cc2NC(=O)/C=C/c2ccc([N+](=O)[O-])cc2)CC1,-8%
COc1nc(Oc2ccc(=O)n(C)n2)nc(N(C)C)n1,0%
Cc1ccc(N(C)C(=O)Cn2nc(Cc3ccncc3)c3ccccc3c2=O)cc1C,-14%
O=C(Nc1ccc(S(=O)(=O)NC2=NCCCCC2)cc1)c1cccc(S(=O)(=O)N2CCOCC2)c1,-8%
CCOC(=O)C1=C(C)NC(SCC(N)=O)=C(C#N)C1c1cccs1 (configuration not stated),?
CCOC(=O)Cc1nc(-c2cccc(C(F)(F)F)c2)no1,-13%
Cc1cc(C)nc(N2C(=O)CC(C(=O)O)NC2=NCCc2c[nH]c3ccccc23)n1 (configuration not stated),1%
O=C(NNS(=O)(=O)c1ccc2ccccc2c1)C1CCN(Cc2ccccc2)CC1,-19%
O=S(=O)(c1ccc(Cl)cc1)N1CCN(C(=S)Nc2ccccc2F)CC1,13%
COc1ccc(OC)c(NC(=O)c2ccc3c(c2)c(C)c(C)n3Cc2ccc(F)cc2)c1,-5%
O=C(NCCCn1ccnc1)/C(=C/c1cccs1)NC(=O)c1ccco1,-4%
CCN1CCN(C(c2cccnc2)c2c(NC(=O)c3ccco3)sc(C)c2C)CC1 (configuration not stated),-6%
N#Cc1cc2nc(O)c(O)nc2cc1[N+](=O)[O-],-3%&-7%&3%
O=C1c2ccccc2NC(c2ccccc2)N1/N=C/c1ccccc1 (configuration not stated),6%
COc1cccc([C@@H]2Oc3ccc(OC)cc3C(=O)[C@H]2OC(=O)NCc2ccco2)c1,-7%

3 entries already listed, sorted by heavy-atom count, lowest first.
compound,VDR inhibitor
O=C(NCCCCO)c1ccc2c3c(cccc13)CC2,9%
O=C(N/C(=C\c1cccnc1)C(=O)N1CCOCC1)c1ccco1,7%
O=S(=O)(c1ccc(Cl)cc1)N1CCN(C(=S)Nc2ccccc2F)CC1,13%

(cont.)
compound,VDR inhibitor
COc1ccc(-c2cc(-c3cccs3)c(C#N)c(SCC(=O)NCc3ccccc3)n2)cc1,0%
COc1cc(OC)c(S(=O)(=O)NCc2ccco2)cc1S(=O)(=O)NCc1ccco1,-4%
CCCn1c(SCC(=O)N2CCCCC2)nnc1C(C)C,79µM*
Cc1cccc(C)c1NC(=O)C1(NC(=O)Cn2cccc([N+](=O)[O-])c2=O)CCCCC1,-1%
CCOc1ccc(S(=O)(=O)N/N=C(\C)c2ccc(OC)cc2OC)cc1,?
Cc1ccc(S(=O)(=O)OCCc2ccccc2)cc1,9%
COc1nc(NCc2cccnc2)nc(OC)n1,15%
Cc1ccc(SCCC(=O)NCc2ccncc2)cc1,1%
CN(C)S(=O)(=O)N(CC(=O)NCCSCc1ccc(Cl)cc1Cl)c1ccccc1,-3%
CCCCOC(=O)c1ccc(N2C(=O)CC(N3CCN(C/C=C/c4ccccc4)CC3)C2=O)cc1 (configuration not stated),0%
CCC1CCCCN1C(=O)c1ccc([N+](=O)[O-])o1 (configuration not stated),3%
Cc1cc(C)cc(N(C(C)C(=O)NCc2ccc3c(c2)OCO3)S(C)(=O)=O)c1 (configuration not stated),8%
Cc1ccccc1OCCn1cc(/C(N)=N/O)c2ccccc21,13%
CCOc1cc(C(=O)NCc2ccc(F)cc2)ccc1OCC(=O)N1CCCCC1,1%
Cc1ccc(-n2c(-c3ccncc3)n[nH]c2=S)c(C)c1,4%
O=c1[nH]cnc2scc(-c3ccccc3)c12,-9%
